TRPML1 agonist = activates the human TRPML1 channel; Q9GZU1; TRPML1-expressing cells, Ca2+ dye fluorescence, FDSS; host cell line not named in the record; reference of the full effect not given here; activation, % (concentration not given with the values); actives 0.12% (n = 410,000); in the data active = activation above about 50%; inconclusive = about 30% to 50%; inactive = below about 30%; note: 0% is about no effect; the text of the record puts the active cut at 80%
Target sequence (Q9GZU1 whole entry, looked up): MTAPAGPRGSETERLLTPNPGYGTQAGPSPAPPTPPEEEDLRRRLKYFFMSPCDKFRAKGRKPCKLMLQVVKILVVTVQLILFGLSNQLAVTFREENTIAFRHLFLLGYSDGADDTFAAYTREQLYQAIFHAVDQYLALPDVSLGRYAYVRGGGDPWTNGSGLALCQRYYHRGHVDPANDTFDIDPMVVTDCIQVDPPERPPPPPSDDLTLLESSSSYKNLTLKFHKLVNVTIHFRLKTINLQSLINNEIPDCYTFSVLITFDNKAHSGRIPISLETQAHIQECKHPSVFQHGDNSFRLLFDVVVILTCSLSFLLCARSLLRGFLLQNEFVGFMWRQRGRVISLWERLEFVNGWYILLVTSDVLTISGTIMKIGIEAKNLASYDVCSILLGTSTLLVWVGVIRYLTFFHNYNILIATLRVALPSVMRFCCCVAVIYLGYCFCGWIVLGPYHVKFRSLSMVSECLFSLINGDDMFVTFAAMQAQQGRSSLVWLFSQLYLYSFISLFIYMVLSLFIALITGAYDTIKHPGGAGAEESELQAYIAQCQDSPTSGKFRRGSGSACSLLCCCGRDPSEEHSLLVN
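Tetracycline-induced TRPML1-DL cells are seeded and incubated overnight before loading with a no-wash Ca2+ dye and quencher. Agonist activity is taken from the 110 s fluorescence read following compound pin-transfer on an FDSS, before EC80 54-4 challenge.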
Six1-Eya2 inh = blocks human Six1 binding to Eya2. AlphaScreen GST-Six1/His-Eya2 binding, biochemical; hits give low values; control for the full effect not named in the record. activity change, % (test concentration not listed). actives 0.56% (n = 360,000); in the data active = activity change below about -65%; inconclusive = about -30% to -65%; inactive = above about -30%; note: % is set by controls: 0 for no effect and ±100 for the full control effect; compound concentration not given in the record
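AlphaScreen luminescence read after one hour at 37 °C in darkness. Pin-transferred compounds met GST-Six1 and His-Eya2 protein (5X stock 250 nM/500 nM) plus glutathione donor and Ni-chelate acceptor beads (5X, 50 ug/mL).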
D2 ag = agonists of human D2 dopamine receptor (beta-arrestin); activation, % (test concentration not listed); P14416; actives 0.084% (n = 360,000); AID 624465; DiscoveRx PathHunter D2 beta-arrestin, luminescence, 90 min; 100% = 57 uM dopamine signal; in the data active = activation above about 40%; inconclusive = about 15% to 40%; inactive = below about 15%; note: compound concentration not given in the record; the text of the record calls up to 30% inactive
Target sequence (P14416 whole entry, looked up): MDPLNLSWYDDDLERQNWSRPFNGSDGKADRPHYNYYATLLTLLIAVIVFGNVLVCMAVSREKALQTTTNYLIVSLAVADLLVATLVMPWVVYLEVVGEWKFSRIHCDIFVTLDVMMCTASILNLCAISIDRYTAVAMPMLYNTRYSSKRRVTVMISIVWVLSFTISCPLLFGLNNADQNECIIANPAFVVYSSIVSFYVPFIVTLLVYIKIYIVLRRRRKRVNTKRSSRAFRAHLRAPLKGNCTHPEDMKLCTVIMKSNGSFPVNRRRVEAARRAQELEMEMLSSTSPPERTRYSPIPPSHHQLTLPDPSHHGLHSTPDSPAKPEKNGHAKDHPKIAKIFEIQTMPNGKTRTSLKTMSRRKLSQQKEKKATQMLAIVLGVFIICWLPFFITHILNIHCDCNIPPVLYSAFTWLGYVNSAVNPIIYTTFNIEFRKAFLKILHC
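Agonist mode: compounds alone added to overnight-plated D2 PathHunter cells for 90 min at 37 C, with 57 uM final dopamine (EC100) defining full response. Beta-arrestin recruitment detected by chemiluminescent reagent, read after 1 h at ambient temperature.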
PINK1 expr mod = PINK1 expression modulation; actives 0.2% (n = 410,000); Potency, µM (doses to about 76.6 µM), without a hit: at the highest dose activation (PINK1 increase), usual class: activators; AID 624263; PINK1 immunofluorescence, high-content cytometry, 24 h; active = well fitted activation curve with a large enough effect; inconclusive = small, poorly fitted or top-dose-only effect; inactive = flat fitted curve, though single readings scatter; cell line not stated here;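 note: potency is the fitted concentration of half-maximal effect; % of control where 0% means no effect; nearly all actives have a fitted effect of over 65% in size; a mitochondrial uncoupler was the plate control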
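Measures PINK1 amount and localization on or inside mitochondria by immunofluorescence. Stable cells get compounds at 5 concentrations for 24 hours before fixation and staining; CCCP controls included.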
D2 potentiator = positive allosteric modulators of human D2 dopamine receptor; P14416; DiscoveRx D2 beta-arrestin cells, luminescence, 90 min; 100% = 57 uM dopamine signal; potentiation, % (test concentration not listed); actives 0.23% (n = 360,000); AID 624464; active = potentiation of 50% or more; inconclusive = 30% to 50%; inactive = 30% or less;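 note: compound concentration not given in the record; tested on top of an EC20 dose of dopamine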
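PathHunter D2 cells, attached overnight at 37 deg C, received compound in DMSO plus dopamine at EC20 (50 nM final) for 90 min at 37 deg C. Beta-arrestin recruitment was read as luminescence after 1 h with detection reagent at ambient temperature.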
TRPML1 blocker = human mucolipin-1 channel inhibition | Q9GZU1 | TRPML1-inducible cells, Ca2+ dye fluorescence, FDSS; hits give low values; inhibition of EC80 agonist-evoked calcium signal | actives 0.02% (n = 390,000) | AID 624415 | activity change, negative = inhibition, % (no concentration beside the values); in the data active means activity change below about -50%; inconclusive means about -30% to -50%; inactive means above about -30%;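 note: stimulus is agonist 54-4 at its EC80 concentration; % is set by controls: 0 for no effect and ±100 for the full control effect; compound concentration not given in the record; the text of the record puts the active cut at -80%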
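Tet-induced TRPML1-DL cells loaded with Ca8 no-wash calcium dye were read kinetically on FDSS. Compound addition was followed by EC80 agonist 54-4 (4 uM final); inhibition was read over 110 s.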
Starred values were filed as active, the others as inactive; ? = inconclusive; · = no result given; [ ] = another dose, or the depositor's remark.

SMILES	PINK1 expr mod	TRPML1 blocker	D2 potentiator	TRPML1 agonist	Six1-Eya2 inh	D2 ag
O=c1c2[nH]c3ccccc3c2ncn1Cc1ccncc1	-0.5%	5	-15	-0.8	-5	0.2
COc1cccc(OC)c1C(=O)Nc1ccc(C)cc1C(=O)c1ccccc1	-0.7%	3	0	3.9	1	-1.7
Cc1ccccc1NC(=O)COc1ccc(S(=O)(=O)N2CCCC2)cc1C	4.0%	12	-4	-0.5	-9	-3.5
Cc1ccc2[nH]c(=O)c(CN(Cc3nnnn3C3CCCC3)C3CCCCC3)cc2c1	4.3%[38.3 µM]	48	-1	0.6	6	-1.9
CC(C)OCCCNC(=O)CN1C(=O)CC(C)(C)S(=O)(=O)c2ccccc21	-0.9%	?	-1	0.0	2	-0.5
CC(C)CC(=O)NCc1nc2cccnc2n1Cc1ccccc1	0.2%	-10	·	-0.7	·	·
COCCSc1nnc(NC(=O)Cc2ccc(OC)cc2)s1	-0.2%	16	-10	0.4	7	-0.3
CC(=O)c1ccc(-c2ccc(C(=O)N(C)Cc3nc4ccccc4c(=O)[nH]3)o2)cc1	6.0%	-12	11	-1.6	-9	2.6
Nc1nc(NC(=O)/C=C/c2ccccc2)nn1-c1ccccc1	-1.2%	26	-5	0.6	4	1.9
COC(=O)c1cc(COc2ccc3ccc(=O)oc3c2)c(C)o1	3.9%	16	10	2.2	-10	1.0
CCOC(=O)c1nnn(-c2nonc2N)c1CNc1ccc(C)c(Br)c1	3.5%	1	-5	1.3	1	-5.9
Cc1ccc2c(c1)oc(=O)n2CC(=O)c1ccccc1	1.5%	57	-5	1.0	6	2.1
N#Cc1ccc(NC(=O)COC(=O)c2ccc(F)c(S(=O)(=O)N3CCOCC3)c2)cc1	0.1%	-9	-3	-0.1	7	2.3
COCc1cccc(-c2csc(C(C)(O)c3ccc(OC)cc3)n2)c1 (stereo not given)	2.1%	·	1	-0.3	-1	-4.2
CCC(=O)Nc1ccc2nn(-c3ccc(F)cc3)nc2c1	-0.9%	-4	-4	3.1	-13	1.0
CC(=O)n1cc([C@H]2C=C(C(=O)Nc3ccccc3)O[C@@H](OCc3ccc(CO)cc3)C2)c2ccccc21	-2.2%	2	27	3.4	-8	?
Cc1cccc(Cc2c(C)nc3nc(SCC(=O)O)nn3c2C)c1	1.5%	2	-4	0.1	12	-4.4
O=C(Nc1cccc(O)c1)c1cc(-c2ccccc2F)no1	0.8%	3	·	-0.9	·	·
O=c1[nH]c(=S)n(-c2cccc(C(F)(F)F)c2)c(O)c1C=NCCN1CCNCC1	4.5%	6	1	0.6	-6	-2.2
O=c1oc2c(CN3CCN(CCO)CC3)c(O)ccc2cc1-c1ccccc1	-0.3%	11	·	-0.3	·	·
COc1cc(C(=O)NC2CCN(CC(=O)Nc3cccc(C)c3C)CC2)cc(OC)c1OC	2.9%	-4	2	1.4	-2	0.2
O=C(Nc1cccc(S(=O)(=O)N2CCCCC2)c1)c1ccc([N+](=O)[O-])o1	-1.0%	·	-3	·	-10	13
COc1cccc(CNC(=O)COC(=O)c2ccc(-c3ccc(O)cc3)cc2)c1	18%	14	-1	0.4	-6	0.0
Cc1cnc(NC(=O)c2ccc3ncsc3c2)s1	3.5%	-9	-21	0.5	11	-1.3
Cc1nc(CNC(=O)C2CCC(=O)N(Cc3cccc(F)c3)C2)sc1C (stereo not given)	-0.5%	-12	-11	1.2	-3	1.2
CCc1ccccc1N(C)C(=O)c1cc2c(s1)-c1c(C)cccc1OC2	3.7%	-3	·	1.6	·	·
O=C(CSc1nc2ccccc2o1)Nc1nc2c(s1)CCCC2	0.9%	42	-2	0.1	1	2.0
CC1(C)Cc2ccccc2C(=O)N1	0.2%	-10	-6	4.0	7	-0.6
O=C(Oc1ccc(Br)cc1)C1CC(=O)N(c2ccc(F)cc2)C1 (stereo not given)	-1.5%[38.3 µM]	-13	2	0.6	-13	0.4
Cc1ccc(NCc2nnc(SCC(=O)O)n2-c2ccc(C)cc2)cc1	-0.2%	5	-5	-0.1	1	-2.9
Cc1ccc(NC(=O)CCCc2nnc3n(C)c(=O)c4sccc4n23)cc1F	4.7%	-9	·	1.4	·	·
FC(F)(F)c1nc2ccccc2c2nc3ccccc3n12	1.9%	-9	-15	2.8	-2	-1.9
CCN1CCN(C(=O)CN(c2ccccc2C)S(C)(=O)=O)CC1	0.4%	-3	-3	0.5	27	-3.3
Cc1ccc(C2=NOC3(CC(=O)N(c4ccc(C)cc4)C3=O)C2)cc1 (stereo not given)	2.9%	24	-4	1.4	-5	2.6
CCCCCCCC1CC(=O)C=C(C)C1C(=O)OCC (stereo not given)	8.7%	26	-4	1.1	8	-3.8
O=C(CN1C(=O)NC2(CCCC2)C1=O)OCc1ccc(Br)cc1	0.5%	-4	15	2.3	1	-0.5
CC(C)N(CCO)C(=O)CCc1nnc(Cc2cccc(C(F)(F)F)c2)o1	2.7%	1	-1	0.3	5	-1.8
Cc1ccc(NC(=O)CSc2nc(N)c3c4c(sc3n2)CSC(C)(C)C4)cc1	11%	-4	-7	-0.1	-20	5.3
Cc1ccc(NC(=O)C(=O)NCc2ccc(/C=N/NC(=O)c3c(C)nc4ccccn34)o2)cc1	1.8%	-8	-4	-0.6	-4	-3.5
COc1ccc(NC(=O)NNC(=O)c2ccc(-c3ccccc3)cc2)c(OC)c1	3.4%	6	-20	3.6	12	-3.6
O=C(N/C(=C\c1ccc(Br)cc1)C(=O)N1CCCC1)c1ccccc1F	4.1%	-4	-5	0.0	8	-4.0
CC(C)CN(C(=O)COC(=O)CSc1ccc([N+](=O)[O-])cc1)C1CCS(=O)(=O)C1 (stereo not given)	-1.1%	-8	5	0.0	-1	0.1
CCOC(=O)[C@@H]1[C@H]2COc3ccc(Br)cc3[C@H]2N2C(=O)N(c3ccc(Cl)cc3)C(=O)[C@@]12C	1.1%	-10	-5	0.1	-6	-1.6
COc1ccc(CN(C)C(=O)C23CC4CC(CC(Cl)(C4)C2)C3)c(OC)c1OC	0.3%	65	-5	1.9	-17	-1.1
CCn1c(=O)cc(SCC(=O)Nc2cc(Cl)ccc2OC)c2ccccc21	7.2%	-12	·	1.5	·	·
Cc1cccc(NCc2ccc(Br)cc2)n1	9.8%	8	1	2.2	12	0.1
CC(C)(C)c1ccccc1NC(=O)c1cnn2c(C(F)F)cc(-c3ccccc3)nc12	4.1%	-6	·	-0.5	·	·
Cc1ccc(NCc2ccccc2-c2nnc(-c3ccccc3Cl)o2)cc1Cl	-1.5%	30	·	1.7	·	·

Full records, quoted from the list. Order of values: PINK1 expr mod | TRPML1 blocker | D2 potentiator | TRPML1 agonist | Six1-Eya2 inh | D2 ag
Cc1cccc(NCc2ccc(Br)cc2)n1 is entered as 9.8% | 8 | 1 | 2.2 | 12 | 0.1
CCn1c(=O)cc(SCC(=O)Nc2cc(Cl)ccc2OC)c2ccccc21 is entered as 7.2% | -12 | · | 1.5 | · | ·
CCOC(=O)[C@@H]1[C@H]2COc3ccc(Br)cc3[C@H]2N2C(=O)N(c3ccc(Cl)cc3)C(=O)[C@@]12C is entered as 1.1% | -10 | -5 | 0.1 | -6 | -1.6
COc1ccc(CN(C)C(=O)C23CC4CC(CC(Cl)(C4)C2)C3)c(OC)c1OC is entered as 0.3% | 65 | -5 | 1.9 | -17 | -1.1
O=C(N/C(=C\c1ccc(Br)cc1)C(=O)N1CCCC1)c1ccccc1F is entered as 4.1% | -4 | -5 | 0.0 | 8 | -4.0

Later entries.
SMILES	PINK1 expr mod	TRPML1 blocker	D2 potentiator	TRPML1 agonist	Six1-Eya2 inh	D2 ag
CCCCCCC(=O)N/N=C/Cc1ccccc1	3.5%	-5	-1	-0.9	7	-3.1
Cc1cccc2c1cnn2C(=O)CCC(=O)NCC(C)c1ccccc1 (stereo not given)	0.9%	6	-6	0.2	-3	-1.7
COc1cc(OC)cc(-c2cc3cc(F)ccc3cn2)c1	4.4%	-8	0	1.5	10	2.2
CN(C)c1nc(N)nc(N(c2ccccc2)c2ccccc2)n1	1.4%	5	-3	-0.2	2	-3.2
CCCCc1c(O)nc(SCC(=O)N2CCOCC2)n(-c2ccccc2OC)c1=O	-2.3%	18	-4	-0.1	-1	-4.8
CCCNC(=O)c1cc2c3ccccc3n(C)c2s1	5.7%	12	8	1.1	-9	-0.8
CCOC(=O)NC1(Nc2cccc(Cl)c2)Oc2ccccc2O1	7.2%	3	12	0.9	-3	4.6
CCCNC(=O)CSc1nc2nc(C)c(Cc3ccccc3Cl)c(C)n2n1	-1.3%	18	·	-0.4	·	·

A second format for part of the listing above.
> CN(C)c1nc(N)nc(N(c2ccccc2)c2ccccc2)n1
- PINK1 expr mod = 1.4%
- TRPML1 blocker = 5
- D2 potentiator = -3
- TRPML1 agonist = -0.2
- Six1-Eya2 inh = 2
- D2 ag = -3.2

> CCCNC(=O)CSc1nc2nc(C)c(Cc3ccccc3Cl)c(C)n2n1
- PINK1 expr mod = -1.3%
- TRPML1 blocker = 18
- D2 potentiator = ·
- TRPML1 agonist = -0.4
- Six1-Eya2 inh = ·
- D2 ag = ·

Other results.
SMILES	PINK1 expr mod	TRPML1 blocker	D2 potentiator	TRPML1 agonist	Six1-Eya2 inh	D2 ag
O=C(COC(=O)c1c[nH]c(=O)[nH]c1=O)Nc1ccccc1Br	0.6%	-11	-14	-0.5	8	-5.0
O=C(/C=C/c1ccc(Cl)c(Cl)c1)Nc1cccnc1	5.0%	0	-5	1.9	-9	4.3
CCOC(=O)c1ccc(NC(=O)c2nc[nH]c2C(=O)N2CCc3ccccc3C2)cc1	8.8%	-7	-9	2.4	-1	-3.8
Cc1cccc(/C=N/n2c(C3CCCCC3)n[nH]c2=S)c1	7.2%	11	-10	2.5	-19	-9.3
COCCOC(=O)c1c(NC(=O)CNC2CCCc3ccccc32)sc(C(N)=O)c1C (stereo not given)	7.8%	-21	0	1.6	15	-3.0
COc1ccccc1N1CCN(C(=O)c2cccc(NC3=NC4CS(=O)(=O)CC4S3)c2)CC1 (stereo not given)	1.0%	21	-7	-0.1	2	-1.9
Cc1onc(-c2c(Cl)cccc2Cl)c1COC(=O)c1ccc([N+](=O)[O-])cc1	-0.3%	21	16	2.0	-15	5.4
CSC1=C(C#N)C2(CCCCC2)C(C(=O)Nc2ccccc2)=C(C)N1	3.0%	·	-10	·	4	-4.2
C=CC#CC1(O)CC(C)N(C)CC1C (stereo not given)	-1.5%	-17	-3	0.2	8	4.4
COC(=O)c1ccccc1NC(=O)CS(=O)(=O)Cc1nc(-c2ccc(C)cc2)oc1C	6.2%	-16	1	0.6	-3	-2.5
Cc1ccc(-c2csc(NC(=O)CN3CC(C)OC(C)C3)n2)cc1 (stereo not given)	1.9%	-18	-6	0.9	-3	6.2
CCn1c2ccccc2c2cc(CN3CCN(Cc4cccc(Cl)c4)CC3)ccc21	2.6%	20	·	1.8	·	·
